From PubChem BioAssay
ID4 SMM: binders of human ID4 protein. calls only. 1.2% of 31,000 active. AID 624137. small molecule microarray, Flag-ID4 binding, fluorescence F/B. P47928;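 active = spot signal over background at p below 0.07 in all four prints; compounds were printed on slides so no solution concentration is given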;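 also: a binder raises fluorescence above local background on the spot; about 2 pmol printed per array spot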
Target sequence (P47928 whole entry, looked up): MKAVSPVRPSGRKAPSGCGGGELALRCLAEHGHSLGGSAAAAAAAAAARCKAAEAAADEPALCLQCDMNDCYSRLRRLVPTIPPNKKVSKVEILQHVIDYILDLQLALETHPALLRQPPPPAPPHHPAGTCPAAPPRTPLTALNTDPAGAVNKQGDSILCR
Calls only; i = inactive. The list is partial, so the mix of outcomes need not match the whole.

Compound | ID4 SMM
CCc1ccccc1NC(=O)CSc1nc2cc(C(F)(F)F)ccc2s1 | i
C[C@@H]1CN([C@@H](C)CO)C(=O)c2ccccc2-c2ccccc2CO[C@H]1CN(C)C(=O)C1CC1 | i
COc1ccc(O)c(C=NCC(C)N=Cc2cc(OC)ccc2O)c1 (stereo not given) | i
CNC(=O)C1=C[C@@H](c2ccc(OC)cc2)C[C@@H](OCCCCO)O1 | i
O=C(COc1cccc(C(F)(F)F)c1)NCc1cccnc1 | i
COc1cc(NC(=O)CSc2nnc(-c3ccncc3)o2)cc(OC)c1OC | i
COc1cccc(CNCCSc2nnnn2C)c1 | i
O=C(O)CN(c1cccc(Br)c1)S(=O)(=O)c1ccccc1 | i
CN(CC(=O)Nc1ccccc1C(=O)N1CCCCC1)S(=O)(=O)c1ccc2ccccc2c1 | i
C[C@H](NC(=O)C[C@@H]1C=C[C@H](NC(=O)Cc2ccccn2)[C@@H](CO)O1)c1ccccc1 | i
C[C@@H]1CN([C@H](C)CO)C(=O)c2cc(C#Cc3cccnc3)cnc2O[C@H]1CN(C)Cc1cccnc1 | i
Cn1cnc(S(=O)(=O)N[C@@H]2C=C[C@@H](CC(=O)NCC3CCCCC3)O[C@H]2CO)c1 | i
Cn1c(SCC(=O)Nc2ccc(Oc3ccccc3)cc2)nnc1-c1ccc([N+](=O)[O-])cc1 | i
Cc1ccc(S(=O)(=O)NC2c3cccc4cccc(c34)C2Sc2nnnn2-c2ccccc2)cc1 (stereo not given) | i
Cc1ccc(C)c(NC(=O)CSc2n[nH]c(-c3ccccc3)n2)c1 | i
O=C(c1ccccc1Cl)N1CCN(c2ccc([N+](=O)[O-])c(NCc3cccnc3)c2)CC1 | i
COc1ccc([N+](=O)[O-])cc1NC(=O)CN(c1ccc(I)cc1)S(C)(=O)=O | i
CCOc1ccccc1-c1nnc(SCC(=O)Nc2ccc(I)cc2)o1 | i
S=C(SCc1ncon1)N1CCSCC1 | i
COc1ccc(NC(=O)c2ccccc2NC(=O)COc2cccc(OC)c2)cc1 | i
CC(=O)c1cccc(NC(=O)C(C)N(c2ccc(C)cc2)S(C)(=O)=O)c1 (stereo not given) | i
C[C@H](NC(=O)C[C@H]1C=C[C@@H](NC(=O)Cc2ccccn2)[C@H](CO)O1)c1ccccc1 | i
O=C(CSc1nc2ccc([N+](=O)[O-])cc2s1)Nc1cc(Cl)cc(Cl)c1 | i
CO[C@H](CN(C)C(=O)c1ccccc1F)[C@H](C)CN([C@H](C)CO)S(=O)(=O)c1ccc(Cl)cc1 | i
COc1ccccc1-c1cnc2c(c1)C(=O)N([C@@H](C)CO)C[C@@H](C)[C@H](CN(C)C(=O)c1ccncc1)O2 | i

Compound | ID4 SMM
CC(=O)c1cccc(NC(=O)CN(C)S(=O)(=O)c2ccc(F)cc2)c1 | i
Cc1cc(C)cc(NC(=O)CSc2nnc(N)s2)c1 | i
CO[C@@H]1CN(C)C(=O)c2ccc(NC(=O)C3CCCCC3)cc2OC[C@@H](C)N(C)C[C@H]1C | i
Cc1ccc(C(Nc2ccccn2)c2ccc3cccnc3c2O)cc1 (stereo not given) | i
O=C(C[C@@H]1C[C@@H]2c3cc(NC(=O)c4ccc5c(c4)OCO5)ccc3O[C@@H]2[C@@H](CO)O1)NCc1ccccn1 | i
COc1ccc(NC(=O)CSc2nc3c(cc2C#N)CCCCC3)cc1OC | i
O=C(O)CCNS(=O)(=O)c1ccc2c(c1)OCCO2 | i
Cc1c(Cl)cccc1NC(=O)CSc1nnc(-c2ccc([N+](=O)[O-])cc2)n1C | i
CS(=O)(=O)N(CC(=O)Nc1ccccc1Br)Cc1ccccc1 | i
C[C@H]1CN([C@@H](C)CO)S(=O)(=O)c2ccc(C#Cc3ccncc3)cc2O[C@@H]1CN(C)S(=O)(=O)c1ccccc1 | i
COc1ccc(C(=O)CSc2nnc(-c3ccco3)n2C)cc1 | i
CNC[C@H]1Oc2ncc(C#Cc3ccccc3F)cc2C(=O)N([C@@H](C)CO)C[C@H]1C | i
Cc1cc(C)c(S(=O)(=O)N(C)CC(=O)Nc2cc(C(F)(F)F)ccc2Cl)c(C)c1 | i
COc1cccc(OCC(=O)Nc2ccc(OC)c(NC(=O)c3ccco3)c2)c1 | i
CC(C)C#Cc1cnc2c(c1)C(=O)N([C@@H](C)CO)C[C@@H](C)[C@H](CN(C)C(=O)CCN1CCCCC1)O2 | i
COc1ccc(C(=O)Cn2c3ccccc3n3nc(-c4cccs4)nc23)cc1 | i
CC(C)NC(=O)N(C)C[C@H]1Oc2ncc(C#CC3CC3)cc2C(=O)N([C@H](C)CO)C[C@@H]1C | i
CO[C@@H](CN(C)C(=O)c1ccccc1F)[C@@H](C)CN([C@@H](C)CO)S(=O)(=O)c1ccc(Cl)cc1 | i
CCC(=O)N[C@H]1C=C[C@H](CC(=O)NCc2ccccc2OC)O[C@@H]1CO | i
COc1ccc(-c2cnc3c(c2)C(=O)N([C@H](C)CO)C[C@@H](C)[C@H](CN(C)C(=O)NC2CCCC2)O3)cc1 | i
Cc1ccccc1-c1cnc2c(c1)C(=O)N([C@H](C)CO)C[C@@H](C)[C@H](CN(C)C(=O)c1ccccc1)O2 | i
C#CCOc1ccc(C(Nc2ccccn2)c2ccc3cccnc3c2O)cc1 (stereo not given) | i
O=C(NS(=O)(=O)c1ccc(NC(=O)C2COc3ccccc3O2)cc1)c1ccccc1 (stereo not given) | i
CC(C)c1ccc(NC(=O)CSc2nnc(-c3ccccc3Cl)n2C)cc1 | i
COc1ccc(NC(=O)CSc2nnc3n4ncnc4c4c5c(sc4n23)COC(C)(C)C5)cc1 | i

Given with each value named: 2 of the compounds above.
SMILES: CCC(=O)N[C@H]1C=C[C@H](CC(=O)NCc2ccccc2OC)O[C@@H]1CO
  ID4 SMM: i
SMILES: Cc1ccccc1-c1cnc2c(c1)C(=O)N([C@H](C)CO)C[C@@H](C)[C@H](CN(C)C(=O)c1ccccc1)O2
  ID4 SMM: i

Continued:
Compound | ID4 SMM
C/C=C/c1cnc2c(c1)C(=O)N([C@@H](C)CO)C[C@@H](C)[C@@H](CN(C)C(=O)CN1CCOCC1)O2 | i
Fc1ccc(N(Cc2nc3ccccc3[nH]2)Cc2nc3ccccc3[nH]2)cc1 | i
C[C@@H]1CN([C@@H](C)CO)C(=O)c2ccccc2-c2ccccc2CO[C@H]1CN(C)C(=O)Nc1ccnc(N2CCOCC2)c1 | i
C/C=C/c1cnc2c(c1)C(=O)N([C@H](C)CO)C[C@@H](C)[C@@H](CN(C)Cc1ccccc1F)O2 | i
COc1ccc(-c2c(C(F)(F)F)oc3cc(OCC(=O)Nc4ccc(C)cc4)ccc3c2=O)cc1OC | i
C[C@@H]1CN([C@@H](C)CO)C(=O)c2cc(C#Cc3ccccc3F)cnc2O[C@H]1CN(C)C(=O)C1CC1 | i
Cc1ccccc1-c1cnc2c(c1)C(=O)N([C@@H](C)CO)C[C@@H](C)[C@@H](CN(C)C(=O)c1ccccc1)O2 | i
COc1ccccc1-c1cnc2c(c1)C(=O)N([C@@H](C)CO)C[C@H](C)[C@H](CN(C)C(=O)c1ccccc1)O2 | i
CSc1ccc(S(=O)(=O)NCc2ccccn2)cc1 | i
CCCCNc1cc(C(=O)O)cc(S(N)(=O)=O)c1Oc1ccccc1 | i
COc1ccc(CCC(=O)c2c(O)cc(O[C@@H]3O[C@H](CO)C(O)[C@H](O)C3O[C@@H]3O[C@@H](C)[C@H](O)[C@@H](O)[C@H]3O)cc2O)cc1O (stereo not given in full) | i
CN(C)c1ccc2c(c1)[C@@H]1C[C@H](CC(=O)NCc3ccc(-c4ccccc4)cc3)O[C@@H](CO)[C@@H]1O2 | i
CC1(C)Cc2nc3sc4c(SCC(=O)NCc5ccccc5)ncnc4c3cc2CO1 | i
C[C@@H]1CN([C@@H](C)CO)C(=O)c2cc(C3=CCCCC3)cnc2O[C@@H]1CN(C)C(=O)c1ccc(F)cc1 | i
COC(=O)c1c(-c2ccc(Br)cc2)csc1NC(=O)C1CCCCC1C(=O)O (stereo not given) | i
COc1ccccc1-c1ccc2c(c1)O[C@H](CN(C)C(=O)c1cccnc1)[C@H](C)CN([C@@H](C)CO)S2(=O)=O | i
C/C=C/c1ccc2c(c1)O[C@@H](CN(C)Cc1ccccc1)[C@@H](C)CN([C@H](C)CO)S2(=O)=O | i
CC(C)C#Cc1ccc2c(c1)O[C@@H](CN(C)C(=O)C1CCC1)[C@H](C)CN([C@@H](C)CO)S2(=O)=O | i
CCc1ccc(CCC(=O)Nc2cc(C(F)(F)F)ccc2Cl)o1 | i
COc1ccc(-c2nnc(SCCC(=O)O)n2C)cc1OC | i
CC(=O)c1cccc(NC(=O)CN(C2CCCCC2)S(=O)(=O)c2ccc(Br)cc2)c1 | i
C[C@H]1CN([C@@H](C)CO)S(=O)(=O)c2ccc(C#CCN(C)C)cc2O[C@@H]1CN(C)C(=O)Nc1ccccc1F | i
C[C@@H]1CN([C@H](C)CO)S(=O)(=O)c2ccc(C3=CCCC3)cc2O[C@H]1CN(C)CC1CCCC1 | i
C[C@H](CO)N1C[C@H](C)[C@@H](CN(C)C)Oc2cc(C#Cc3ccccc3F)ccc2S1(=O)=O | i
Cc1ccccc1NC(=O)COc1ccc(N2CC(C(N)=O)CC2=O)cc1 (stereo not given) | i

Compound | ID4 SMM
COc1ccc(NC(=O)c2ccco2)cc1NC(=O)C(C)(C)Oc1ccc(Cl)cc1 | i
CCCC#Cc1ccc2c(c1)O[C@H](CN(C)C(=O)c1cnccn1)[C@@H](C)CN([C@H](C)CO)S2(=O)=O | i
Cc1cc(C)nc(/N=C2\NC(=O)CC(C(=O)O)N2c2ccc(F)c(Cl)c2)n1 (stereo not given) | i
C=CCN1C(=O)[C@]2(O[C@H](CCn3cc([C@H](O)c4ccccc4)nn3)[C@@H]([Si](C)(C)c3ccc(OC)cc3)[C@@H]2C)c2ccccc21 | i
CCOC(=O)C1CCCCN1Cc1ccco1 (stereo not given) | i
COc1ccc(NC(=S)NCc2cccnc2)cc1OC | i
C[C@@H]1CN([C@H](C)CO)C(=O)c2cc(-c3ccccc3)cnc2O[C@H]1CN(C)C(=O)C1CCCCC1 | i
O=C(CCN1C(=O)C2C3C=CC(C4CC34)C2C1=O)Nc1ccc(F)cc1 (stereo not given) | i
C[C@@H]1CN([C@H](C)CO)C(=O)c2cc(C#CCc3ccccc3)cnc2O[C@@H]1CN(C)CC1CC1 | i
CCC(=O)N(C)C[C@H]1Oc2ncc(C#Cc3ccccc3)cc2C(=O)N([C@@H](C)CO)C[C@@H]1C | i
Cc1nn(C)c(C)c1CN1CCN(C(=S)Nc2ccc(S(N)(=O)=O)cc2)CC1 | i
CCC(=O)N[C@H]1C=C[C@H](CC(=O)NCC2CCCCC2)O[C@@H]1CO | i
COc1ccc(OC)c(N(CC(=O)Nc2cccc(Cl)c2Cl)S(C)(=O)=O)c1 | i
COc1ccc(C(=O)Oc2c(S(=O)(=O)c3ccccc3)c(C)nn2-c2ccccc2)cc1 | i
O=C(C(NS(=O)(=O)c1cccc2nsnc12)c1ccccc1)N1CCc2ccccc21 (stereo not given) | i
O=C(CCn1cnc2ccccc2c1=O)Nc1ccc(S(=O)(=O)N2CCCC2)cc1 | i
COC(=O)c1cc(OC)c(OC)cc1NC(=O)COc1ccc(C)cc1Br | i
Cn1nnnc1SCC(=O)Nc1ccc(Oc2ccc(Cl)cc2)cc1 | i
C[C@H]1CN([C@@H](C)CO)C(=O)c2cc(Br)cnc2O[C@H]1CN(C)C(=O)c1ccccc1F | i
O=c1cc(O)c2sc3nc(-c4cccs4)cc(C(F)(F)F)c3c2[nH]1 | i
C[C@H]1CN([C@@H](C)CO)C(=O)c2ccccc2-c2ccccc2CO[C@@H]1CN(C)C(=O)c1ccc(F)cc1 | i
COCC#Cc1cnc2c(c1)C(=O)N([C@@H](C)CO)C[C@@H](C)[C@H](CN(C)Cc1ccccc1F)O2 | i
Cc1ccc(-c2cc(C(=O)NCc3cccnc3)no2)cc1 | i
CCCN(C)C[C@H]1Oc2cc(Br)ccc2S(=O)(=O)N([C@H](C)CO)C[C@H]1C | i
CCC(=O)N(C)C[C@H]1Oc2ncc(-c3ccccc3F)cc2C(=O)N([C@H](C)CO)C[C@H]1C | i

Compound | ID4 SMM
C[C@@H](NC(=O)C[C@H]1C=C[C@@H](NC(=O)C2CC2)[C@@H](CO)O1)c1ccccc1 | i
O=C(CSc1nc(-c2ccc(Cl)cc2)cs1)Nc1cccc([N+](=O)[O-])c1 | i
Cc1ccc(S(=O)(=O)N2C(=O)CCC2C(=O)Nc2ccc(Cl)c(Cl)c2)cc1 (stereo not given) | i
C[C@H]1CN([C@@H](C)CO)C(=O)c2cc(C#Cc3cccnc3)cnc2O[C@@H]1CN(C)S(=O)(=O)c1ccccc1F | i
O=C(c1ccc(O)cc1)c1c(O)cc(O)c([C@@H]2O[C@H](CO)[C@@H](O)[C@H](O)[C@H]2O)c1O | i
COc1ccc(NC(=O)C2=C(C)NC(=O)NC2c2cc(OC)ccc2OC)c(OC)c1 (stereo not given) | i
C[C@H](CO)N1C[C@H](C)[C@@H](CN(C)CC2CCOCC2)Oc2ncc(-c3cccc(F)c3)cc2C1=O | i

As a short view, some entries already given.
Compound | ID4 SMM
Cn1c(SCC(=O)Nc2ccc(Oc3ccccc3)cc2)nnc1-c1ccc([N+](=O)[O-])cc1 | i
Cc1ccc(S(=O)(=O)NC2c3cccc4cccc(c34)C2Sc2nnnn2-c2ccccc2)cc1 (stereo not given) | i
Cc1ccc(C)c(NC(=O)CSc2n[nH]c(-c3ccccc3)n2)c1 | i
O=C(c1ccccc1Cl)N1CCN(c2ccc([N+](=O)[O-])c(NCc3cccnc3)c2)CC1 | i
COc1ccc([N+](=O)[O-])cc1NC(=O)CN(c1ccc(I)cc1)S(C)(=O)=O | i
CCOc1ccccc1-c1nnc(SCC(=O)Nc2ccc(I)cc2)o1 | i
S=C(SCc1ncon1)N1CCSCC1 | i
